Arbovirus anti – blocks arbovirus infection | inhibition, % at 10 µM | AID 1251 | arbovirus infection cell-based antiviral screen | 200,000 tested, 0.37% active;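 active = inhibition from about 30%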;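 note: bluetongue infection of BSR cells; cell survival read as ATP light after 72 h; 0% = infected wells without compound and 100% = uninfected wells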
Mtb betalactam – beta-lactam sensitization of Mtb H37Rv. inhibition, % at 25 µM. 330,000 tested, 0.27% active. AID 434955. M. tuberculosis H37Rv growth with meropenem, percent inhibition; hits of this screen are not shown here;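 active = about 74% or more and at least 40 points above the plate without the antibiotic, then above 30% in a dose series; inconclusive = first-round hits that could not be retested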;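 note: growth measured after seven days incubation then overnight dye step; 0% = bacteria only wells and 100% = bacteria with antibiotic; twin plates without the antibiotic show which effects depend on it; some results filed as inactive read as strong as hits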
Mtb growth – M. tuberculosis H37Rv growth inhibitors, H37Rv strain (AID 1626) | M. tuberculosis H37Rv growth inhibition; higher % means a stronger effect | 220,000 tested, 0.95% active | inhibition, % at 10 µM; hits with a dose series show IC50 in µM;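 active = confirmed in a dose series; inconclusive = inhibition above 80% but not taken into the dose series; inactive = below 80% or under 30% at every dose of the series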;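 note: bacteria incubated seven days before Alamar blue readout; 0% = bacteria only wells and 100% = bacteria with antibiotic wells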
YopH inh – inhibitors of Yersinia enterocolitica YopH tyrosine phosphatase; fluorescence Ex485/Em525; inhibition, %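 (about 10 µM by stock and volumes)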; 140,000 tested, 0.16% active; AID 898;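 active = inhibition of 50% or more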;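 note: controls were vehicle for no effect and minimum signal wells for full effect; inactives centre near -20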
RecA splice inh – blocks M. tuberculosis RecA intein splicing | 290,000 tested, 0.75% active | AID 2221 | inhibition, %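 (about 9 µM by stock and volumes)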 | cell-free RecA intein splicing, fluorescence; in the data active = inhibition above about 30%; inconclusive = no clear call, values can overlap the other calls;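 note: 0% = vehicle wells and 100% = reference inhibitor control wells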
Target sequence (P9WHJ3 whole entry, looked up, canonical isoform): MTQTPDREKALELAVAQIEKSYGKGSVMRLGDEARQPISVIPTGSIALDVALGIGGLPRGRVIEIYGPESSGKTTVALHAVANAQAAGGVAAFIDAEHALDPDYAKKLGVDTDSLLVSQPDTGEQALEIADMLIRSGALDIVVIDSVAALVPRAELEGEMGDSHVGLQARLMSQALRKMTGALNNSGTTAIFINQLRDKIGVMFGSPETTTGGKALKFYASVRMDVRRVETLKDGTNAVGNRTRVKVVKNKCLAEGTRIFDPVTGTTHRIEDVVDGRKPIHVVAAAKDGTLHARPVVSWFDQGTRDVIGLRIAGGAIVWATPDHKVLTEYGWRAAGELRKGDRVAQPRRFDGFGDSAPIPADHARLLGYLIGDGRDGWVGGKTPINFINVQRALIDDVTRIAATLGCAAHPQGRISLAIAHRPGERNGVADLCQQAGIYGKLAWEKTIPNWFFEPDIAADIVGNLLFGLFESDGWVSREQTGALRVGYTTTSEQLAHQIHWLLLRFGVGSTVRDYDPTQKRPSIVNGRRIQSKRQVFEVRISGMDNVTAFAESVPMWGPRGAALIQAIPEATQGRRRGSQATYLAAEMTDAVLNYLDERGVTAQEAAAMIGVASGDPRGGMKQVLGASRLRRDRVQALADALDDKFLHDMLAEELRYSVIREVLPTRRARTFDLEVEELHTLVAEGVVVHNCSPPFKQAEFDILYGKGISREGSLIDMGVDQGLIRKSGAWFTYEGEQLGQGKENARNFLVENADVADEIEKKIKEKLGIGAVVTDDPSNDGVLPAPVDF
Arbovirus anti repeat – second read-out of Arbovirus anti, no call of its own (marks repeat the call); inhibition, %; measured here: 10K subset replicate screen; many hits read low in the repeat;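 first of two repeat runs on a subset; 0% = infected and 100% = uninfected wells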
The depositor's hits bear a star; ? = inconclusive; · = no result given.

Start of the data: the first 15 compounds (preview)
SMILES	Arbovirus anti	Mtb betalactam	Mtb growth	YopH inh	RecA splice inh	others
Cc1cccc(C(=O)Nc2ccc3c(c2)nc(C)n3C)c1	·	5.2	·	·	0.5
CC(C)(C)c1nnc(NS(=O)(=O)c2ccc([N+](=O)[O-])cc2)s1	·	50.7	·	·	-1.1
CCCCc1cc(O)c(CCCC)c(O)c1	-32.8	82.3	29.4%	-34.1	8.2
O=C(NCc1ccco1)c1c(O)c2cccc3c2n(c1=O)CCC3	-0.7	-15.2	-8.4%	-29.4	0.1
O=C(CSc1ccc(-c2cccnc2)nn1)N1CCCC1	5.3	3.0	-1.1%	·	0.9
CCc1cc[n+](C2=C([O-])c3ccccc3C(=O)/C2=N\S(=O)(=O)c2cccs2)cc1	-34.3	0.7	-4.2%	68.5*	29.8
Cc1ccc(S(=O)(=O)N(CC(=O)Nc2ccc(C(N)=O)cc2)C(=O)N2CCN(C)CC2)cc1	·	-2.8	·	·	0.4
Cc1ccccc1-c1nc2ccccc2c(=O)n1/N=C/c1ccc([N+](=O)[O-])cc1	·	-7.3	·	·	-1.3
N#CCCn1cc(C(=O)NCc2ccccc2)c(-c2ccc3c(c2)OCCO3)n1	-0.2	-0.2	6.5%	·	2.7
Cc1ccc2cc3c(N)c(C(=O)Nc4c(C)[nH]c(=O)[nH]c4=O)sc3nc2c1	-0.9	6.5	-0.1%	-8.8	-6.2
C/C(CC(=O)Nc1ccc(Cl)cc1)=N\NC(=O)C(=O)N1CCCCC1	-13.2	-9.2	9.9%	·	77.8*
CCCNC(=O)c1csc(Nc2cccc3ccccc23)n1	·	6.0	·	·	8.3
COc1ccc(N=Cc2c(O)cc(C)oc2=O)cc1	-19.0	-8.2	94.0%	·	4.5
CC12CCC(=O)N1C(C(=O)N1CCN(S(=O)(=O)c3ccc(F)c(F)c3)CC1)CS2 (stereo not drawn)	·	-2.6	·	·	1.9
COc1ccccc1NC(=O)c1nnn(CC(=O)Nc2ccccc2)c1N	-6.2	-9.9	-3.2%	-87.9	·

All compounds of this part (from the top)
SMILES	Arbovirus anti	Mtb betalactam	Mtb growth	YopH inh	RecA splice inh	others
Cc1cccc(C(=O)Nc2ccc3c(c2)nc(C)n3C)c1	·	5.2	·	·	0.5
CC(C)(C)c1nnc(NS(=O)(=O)c2ccc([N+](=O)[O-])cc2)s1	·	50.7	·	·	-1.1
CCCCc1cc(O)c(CCCC)c(O)c1	-32.8	82.3	29.4%	-34.1	8.2
O=C(NCc1ccco1)c1c(O)c2cccc3c2n(c1=O)CCC3	-0.7	-15.2	-8.4%	-29.4	0.1
O=C(CSc1ccc(-c2cccnc2)nn1)N1CCCC1	5.3	3.0	-1.1%	·	0.9
CCc1cc[n+](C2=C([O-])c3ccccc3C(=O)/C2=N\S(=O)(=O)c2cccs2)cc1	-34.3	0.7	-4.2%	68.5*	29.8
Cc1ccc(S(=O)(=O)N(CC(=O)Nc2ccc(C(N)=O)cc2)C(=O)N2CCN(C)CC2)cc1	·	-2.8	·	·	0.4
Cc1ccccc1-c1nc2ccccc2c(=O)n1/N=C/c1ccc([N+](=O)[O-])cc1	·	-7.3	·	·	-1.3
N#CCCn1cc(C(=O)NCc2ccccc2)c(-c2ccc3c(c2)OCCO3)n1	-0.2	-0.2	6.5%	·	2.7
Cc1ccc2cc3c(N)c(C(=O)Nc4c(C)[nH]c(=O)[nH]c4=O)sc3nc2c1	-0.9	6.5	-0.1%	-8.8	-6.2
C/C(CC(=O)Nc1ccc(Cl)cc1)=N\NC(=O)C(=O)N1CCCCC1	-13.2	-9.2	9.9%	·	77.8*
CCCNC(=O)c1csc(Nc2cccc3ccccc23)n1	·	6.0	·	·	8.3
COc1ccc(N=Cc2c(O)cc(C)oc2=O)cc1	-19.0	-8.2	94.0%	·	4.5
CC12CCC(=O)N1C(C(=O)N1CCN(S(=O)(=O)c3ccc(F)c(F)c3)CC1)CS2 (stereo not drawn)	·	-2.6	·	·	1.9
COc1ccccc1NC(=O)c1nnn(CC(=O)Nc2ccccc2)c1N	-6.2	-9.9	-3.2%	-87.9	·
COc1ccc([C@H]2[C@H](C(=O)C(C)(C)C)N3N=Cc4ccccc4C3[C@]23N=C(c2ccccc2)OC3=O)cc1 (stereo partly drawn)	-3.8	70.8	7.2%	-3.0	18.3
CCN(CC)CCCNC(=O)c1cc(-c2ccc(O)cc2)on1	-7.1	3.2	3.8%	-35.6	-1.4	Arbovirus anti repeat=-8.2
CC(C)NC(=O)CCCc1ccccc1	4.5	2.5	-2.2%	-45.8	2.7	Arbovirus anti repeat=-2.1
O=C(Nc1ncccc1O)c1cccc(S(=O)(=O)N2CCCC2)c1	·	-1.8	·	·	-0.2
Cc1cccc(CN(C)C)c1OC(=O)N(C)C	2.6	-1.5	-9.6%	-43.7	-2.5
Cc1ccc(/C=C(\C#N)C(=O)Nc2cccc(C)n2)cc1	·	3.7	·	·	-3.3
CCCC(=O)n1nc(-c2cccnc2)nc1NCc1ccc(OC)cc1	-7.3	·	3.8%	·	8.2
COc1ccc([N+](=O)[O-])cc1NC1C2CC3CC(C2)CC1C3 (stereo not drawn)	-3.4	-3.0	-5.7%	-25.5	4.6
CSc1ccc(CN(C)C(=O)c2cccc(S(=O)(=O)N3CCN(Cc4ccccc4)CC3)c2)cc1	·	81.9	·	·	4.9
O=[N+]([O-])c1ccccc1OCCCN1CCc2ccccc2C1	·	-14.7	·	·	0.8
CC(C)(C)c1nc2ccccc2c2nnc(SCC(=O)NCc3ccco3)n12	-10.2	-0.8	0.1%	0.5	-0.2
Cc1ccc(CN2C3=NCCN3c3ccccc32)cc1	1.5	1.3	7.8%	·	1.8
COc1ccccc1CNC(=O)c1ccc2nc3[nH]c4ccccc4c3nc2c1	-16.4	9.7	-1.2%	0.5	-5.0
Cc1ccc2nc(-c3ccc(S(=O)(=O)N4CCCCC4)cc3)cn2c1	-1.4	4.3	-3.0%	·	1.1
Cc1cc(C)n(-c2cc(N3CCOCC3)nc(-c3ccccc3)n2)n1	6.0	9.2	10.7%	1.3	0.2
CCNC(=O)c1c(O)c2cccc3c2n(c1=O)CC3	-0.3	1.9	4.0%	-33.9	-2.6
COc1cccc(S(=O)(=O)Nc2ccc3sc(C)nc3c2)c1	16.0	5.1	0.5%	-12.2	-2.0
O=C(O)CCc1nn2c3ccccc3n(CC(=O)c3cccs3)c2nc1=O	3.8	-4.8	-0.7%	·	-0.8
O=S(=O)(/C=C/c1ccccc1)N1CCOCC1	·	-2.9	·	·	-5.2
Cc1cccc(OCC(=O)Nc2ccccc2N2CCN(C)CC2)c1	·	-4.4	·	·	-0.1
Cc1cccc(N2CC(O)=C(c3nc4ccccc4n3C)C2=N)c1	-1.1	-6.0	-4.7%	-151.6	1.7
CC(/C=N\NC(=O)CN1CCN(S(=O)(=O)c2ccc(C)cc2)CC1)=C\c1ccccc1	-19.6	-7.1	-8.1%	-23.5	3.3
Cn1nnc(NC(=S)NC(=O)c2cccc3c(Cl)cccc23)n1	·	1.3	·	·	4.5
COCC(=O)N(C)CC1CCCN(CCc2ccccc2OC)C1 (stereo not drawn)	·	5.0	·	·	-1.1
O=C(CN1C(=O)C2C3C=CC(C3)C2C1=O)OCC(=O)c1ccc(Cl)c([N+](=O)[O-])c1 (stereo not drawn)	·	-13.6	·	·	20.3
CCOC(=O)C(NC(=O)c1ccc(F)cc1)(Nc1sc2c(c1C(N)=O)CCC2)C(F)(F)F (stereo not drawn)	-1.1	-0.6	-2.0%	-6.1	3.0
O=C1c2ccccc2C(=O)N1CC1=CCS(=O)(=O)C1	1.1	1.8	-0.4%	-24.0	-0.4
Cc1ccc2oc(=O)c(/C=C(\O)c3ccccc3)nc2c1	3.2	-4.0	-10.4%	·	-13.3
C/C=C/CC1(CC)C(=O)NC(=S)NC1=O	·	-4.1	-2.5%	·	1.6
CCS(=O)(=O)c1c([N+](=O)[O-])ncn1C	-10.2	95.6	76.2%	-21.9	22.6
O=C(Cn1cncn1)NCc1ccc(Cl)cc1	-0.1	-2.4	-11.9%	-24.8	3.3
Cc1ccc(C)c(N(CC(=O)NC2CCCC2)C(=O)CNC(=O)c2cccs2)c1	·	0.5	·	·	-0.8
C=CCNc1ncnc2c1cnn2-c1cccc(C)c1	-1.4	9.3	16.8%	-13.9	1.1	Arbovirus anti repeat=0.6
O=C(O)c1cc(-c2ccccc2Cl)n(-c2ccc(F)cc2)n1	·	0.0	·	·	-0.4
CCOC(=O)C(NC(=O)c1ccccc1Cl)(Nc1ccc(C)c(C)c1)C(F)(F)F (stereo not drawn)	16.1	53.6	?	-16.0	0.4

Later entries
SMILES	Arbovirus anti	Mtb betalactam	Mtb growth	YopH inh	RecA splice inh	others
Cc1ccc(NC(=O)C2CCN(S(=O)(=O)c3ccc4c(c3)CC(C)N4C(=O)C3CCC3)CC2)nc1 (stereo not drawn)	·	55.8	·	·	1.7
COCCCNC(=O)c1cc2c(-c3ccc(Cl)cc3)nn(C)c2s1	-1.0	7.7	-2.0%	-19.9	3.8	Arbovirus anti repeat=-1.3
Cc1cc(S(=O)(=O)N2CCN(C(=O)CCC(=O)N3CCOCC3)CC2)ccc1Br	·	-3.8	4.4%	·	-1.9
Cc1ccc(C(=O)N2CCN(c3ncccn3)CC2)cc1NC1=NC2CS(=O)(=O)CC2S1 (stereo not drawn)	·	1.4	·	·	-4.5
CCOC(=O)C1CCCN(Cc2cc(Br)c(OC)cc2OC)C1 (stereo not drawn)	13.1	-9.7	1.2%	12.5	0.9
CCOC(=O)CNC(=O)CSc1nnc(SCC(=O)NCC(=O)OCC)s1	10.6	0.4	-11.7%	-34.6	0.8
COc1cc(/C=N/NC(=O)C(=O)NCc2ccco2)cc(Br)c1O	·	10.3	-9.6%	·	0.1
CC1(c2ccccc2)O[C@@H]2C[C@H]3[C@@H]4CCC5=CC(=O)C=C[C@]5(C)[C@@]4(F)[C@@H](O)C[C@]3(C)[C@]2(C(=O)CO)O1 (stereo partly drawn)	·	-2.2	18.1%	·	4.8
N#Cc1c(-c2ccccc2)cc2nc3ccccc3n2c1N	-13.3	1.9	4.8%	-52.0	-9.9
COc1ccc(-c2[nH]nc(-c3ccccc3)c2-c2nc3ccccc3[nH]2)cc1	-5.4	-5.8	0.0%	-5.8	9.7
Cc1ccc(C)c(OCCN2C(=O)NC3(CCc4ccccc4C3)C2=O)c1 (stereo not drawn)	-1.8	6.9	8.3%	-0.1	0.8
CC(=NCCN1CCCCC1)c1c(O)[nH]c(=O)[nH]c1=O	1.2	-3.2	-4.3%	-37.9	-4.8
C=C1C(=O)O[C@@H]2C[C@@H](C)[C@@H]3C=CC(=O)[C@@]3(C)[C@@H](OC(C)=O)[C@H]12	·	99.9	2.07µM*	·	7.6
CCc1nnc(NC(=O)Cc2ccc(Br)cc2)s1	1.7	4.0	2.4%	·	1.5
Cc1oc(-c2ccccc2Cl)nc1CS(=O)CC(=O)NCc1ccc(Cl)cc1 (stereo not drawn)	·	3.1	·	·	0.3
CCOC(=O)C(NC(=O)c1cccc(Cl)c1)(Nc1sc2c(c1C(N)=O)CCC2)C(F)(F)F (stereo not drawn)	0.9	3.8	1.2%	-24.0	9.2
Cc1ccc(C(=O)NCC(=O)NCC(=O)OCC(=O)c2ccc(F)cc2)cc1	-0.5	-4.0	-1.6%	-31.3	-0.5
COc1ccccc1NC(=O)Nc1ccc2c(c1)nc(C)n2C	-3.5	-17.0	3.3%	·	-4.6
COc1ccc(/C=C/C(=O)Oc2ccc(C)c(C)c2)cc1OC	6.5	95.1	9.43µM*	·	0.3
Cc1c(C(=O)C(=O)N2c3ccc(F)cc3CCC2C)c2ccccc2n1C (stereo not drawn)	-10.5	2.3	0.8%	-22.8	2.6
N#CCCCn1c(=O)oc2ccccc21	-0.3	2.2	-1.6%	·	4.8
COc1cccc(C(=O)NNC(=O)c2ccccc2)c1	·	1.0	·	·	2.4
O=S(=O)(Nc1ccc(-n2cccc2)cc1)c1ccccc1	5.1	-5.0	-2.2%	-42.3	4.5
CN(C)C(CNC(=O)c1ccc(NC(=O)CC#N)cc1)c1ccccc1 (stereo not drawn)	0.1	-3.9	-2.2%	·	-0.6
O=C(Cn1nnc2ccccc2c1=O)Nc1ccc2c(c1)CCC2	11.6	5.5	-2.6%	2.3	1.0
COc1ccc(CN2CCN(c3ccccc3F)CC2)c(OC)c1	6.9	11.9	·	-26.7	-1.8

Screening results deposited in PubChem by several laboratories.

Not all compounds are listed; count on the stated rates, not on these rows.
